Screening results: PubChem, several laboratories
GALR2 agonist – agonists of human galanin receptor 2 (GALR2). O43603. GALR2-expressing cells, agonist activation read-out. activation, %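 (tested at 5 µM)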. hit rate 0.48% among 140,000;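 active = above mean plus 3 SD of all compounds, about 5% in these data, not always enough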;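 note: 0% = vehicle buffer wells and 100% = reference agonist at full effect; tested in CHO reporter cells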
Target sequence (O43603 whole entry, looked up): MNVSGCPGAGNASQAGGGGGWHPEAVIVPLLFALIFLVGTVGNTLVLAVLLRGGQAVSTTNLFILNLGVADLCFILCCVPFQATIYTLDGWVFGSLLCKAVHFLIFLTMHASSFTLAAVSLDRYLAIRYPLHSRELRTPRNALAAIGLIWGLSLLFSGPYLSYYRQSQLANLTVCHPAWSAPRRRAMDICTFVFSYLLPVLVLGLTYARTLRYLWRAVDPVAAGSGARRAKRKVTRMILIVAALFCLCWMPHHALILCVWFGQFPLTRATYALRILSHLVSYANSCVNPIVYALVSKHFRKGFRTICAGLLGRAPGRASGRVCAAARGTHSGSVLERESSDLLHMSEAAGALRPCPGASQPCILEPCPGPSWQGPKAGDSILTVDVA
INS promoter inh – TRM-6 insulin promoter activity inhibition; TRM-6 cells (human fetal islet line), insulin promoter-eGFP reporter, imaging; reporter expression induced with tamoxifen; inhibition, % at 2 µM; hit rate 0.9% among 130,000; AID 1273;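 active = inhibition above the mean plus 3 SD, with well images judged a real hit on visual review, cut at about 60% in these data, passing the limit was not always enough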
PKD1 inh – inhibitors of human PKD1 kinase. hit rate 0.056% among 200,000. inhibition, %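 (about 10 µM by stock and volumes)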. PKD1 kinase fluorescence polarization assay. Q15139;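 active = inhibition of 50% or more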;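 note: controls were vehicle for no effect and a reference inhibitor for full effect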
RGS16-Gao HTS – regulators of human RGS16-Galphao interaction | bead-based flow cytometry RGS16-Galphao binding, fluorescence; actives lie on both sides | binding response (% of control), % at 10 µM | hit rate 0.38% among 220,000 | AID 1441;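 active = below 25% or above 175%, edge rows of some plates excepted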;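 note: Galphao activated by GDP with aluminum fluoride before binding; 100% = wells without compound and 0% = beads without RGS; some results beyond the cut were filed as inactive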
Target sequence (O15492 whole entry, looked up): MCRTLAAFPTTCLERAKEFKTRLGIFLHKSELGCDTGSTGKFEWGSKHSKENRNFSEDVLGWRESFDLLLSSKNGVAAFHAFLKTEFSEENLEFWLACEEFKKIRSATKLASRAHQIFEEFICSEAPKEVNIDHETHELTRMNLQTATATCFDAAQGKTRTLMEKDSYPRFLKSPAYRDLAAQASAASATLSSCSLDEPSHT
Target sequence (P09471 whole entry, looked up): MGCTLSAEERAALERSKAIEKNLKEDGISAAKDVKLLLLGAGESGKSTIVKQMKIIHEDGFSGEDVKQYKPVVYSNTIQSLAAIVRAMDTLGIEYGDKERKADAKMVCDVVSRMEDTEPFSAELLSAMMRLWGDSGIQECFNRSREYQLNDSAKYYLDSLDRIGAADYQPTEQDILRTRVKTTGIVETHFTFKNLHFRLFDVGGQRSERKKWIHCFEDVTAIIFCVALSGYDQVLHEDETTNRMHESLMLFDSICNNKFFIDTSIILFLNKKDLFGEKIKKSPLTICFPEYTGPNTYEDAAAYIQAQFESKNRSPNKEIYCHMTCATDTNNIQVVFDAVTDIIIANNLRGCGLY
HSV augment – increases HSV replication in cells; HSV replication augmentation in cells, fold increase; maximum fold increase; hit rate 0.005% among 220,000; AID 1956;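 active = peak rise of 1.5-fold or more in the series; tested in PC3 cells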;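 note: first round at 10 µM; read as green reporter fluorescence; hits show the peak of a series up to 25 µM; 1 = signal of infected wells without compound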
INS promoter inh cell count – further read-out of INS promoter inh, marked with its call; normalized cell count, %; measured here: cell count, toxicity; reference of the scale not given here;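 cells exposed to compound for 48 h; stained nuclei by imaging scaled within each plate; lower means fewer cells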
HSV augment primary fold – also measured in HSV augment; calls as there; fold increase; compound at 10 µM; measured here: primary screen fold increase 10 uM; tested in PC3 cells;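 GFP signal in the first replicate; 1 = infected wells without compound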
* hit, by the source's call; i = inactive; . = no result given.

SMILES	GALR2 agonist	INS promoter inh	INS promoter inh cell count	PKD1 inh	RGS16-Gao HTS	HSV augment	HSV augment primary fold
CCOc1c(OC)cccc1C1CC(=O)Nc2cc3c(cc21)OCCO3 (stereo unspecified)	-0.3	.	.	1.3	105.6	i	0.9
CC1=NN(c2ccccc2)C(=O)/C1=C\c1cn(CCC#N)nc1-c1ccc(Cl)cc1	-1.4	-6.2	149.8	-2.6	105.6	i	0.8
COc1ccc(CN(Cc2ccncc2)C(=O)CCC(=O)O)cc1	-2.7	-118.2	78.2	-1.4	99.2	i	0.81
O=C1CCCN1CN(C(=O)c1ccc2c(c1)OCO2)c1ccc(F)cc1	-1.2	.	.	-18.4	98.1	i	0.83
CCOCCCNC(=O)C1c2ccccc2C(=O)N2CCc3ccccc3C12 (stereo unspecified)	-1.4	.	.	-4.2	98.7	i	1.09
CCOCCCNC(=O)C(c1ccc(C)cc1)N(Cc1cccs1)C(=O)CNC(C)=O (stereo unspecified)	-2.2	11.1	88.9	-5.9	30.6	i	1
CCSc1nnc(NC(=O)C(CC)(C(F)(F)F)C(F)(F)F)s1	-2.3	2.7	83.4	-0.2	101.0	i	0.98
Cc1ccc(C)c(Cn2c(C(C)O)nc3ccccc32)c1 (stereo unspecified)	-1.1	-150.0	152.0	-2.2	96.9	i	0.96
CCC(C)NCCOCCOc1ccc(Cl)cc1Br (stereo unspecified)	.	.	.	0.0	110.5	i	0.84
COc1ccc(Cc2nnn(CC(=O)O)n2)cc1	-0.8	0.0	101.7	-4.5	98.1	i	0.85
CC(=O)Oc1ccc2c(=O)c(-c3nc4ccccc4s3)coc2c1	.	-64.3	51.5	8.3	39.3	i	0.98
O=C(/C=C(/c1ccc(Cl)cc1)n1cncn1)c1ccccc1	-1.8	22.2	95.3	-7.7	107.2	i	0.86
Cc1ccc(OCc2n[nH]c(=S)n2-c2ccccc2)cc1C	.	.	.	2.7	104.5	i	1.01
CCOc1cccc(Oc2ncccc2C(=O)/C(C#N)=C/N(C)C)c1	-0.1	-14.3	51.2	6.0	96.6	.	.
COC(=O)c1ccc2c(c1)NC(=O)C1CCCN21 (stereo unspecified)	.	.	.	.	91.3	i	1.13
O=C(CCCN1C(=O)/C(=C/c2ccccc2Cl)SC1=S)NNC(=O)c1ccc(Cl)cc1	.	.	.	.	96.8	i	0.9
C=CCn1c(C)nc2c(sc3nc4c(cc32)COC(C)(C)C4)c1=O	.	.	.	.	102.7	i	1
Cc1cc(C)n2nc(Cc3ccccc3)nc2n1	-1.4	.	.	-6.8	110.4	i	0.94
Cc1occc1C(=O)Nc1ccc2c(c1)CCC2	-0.3	5.3	63.2	-12.1	77.0	i	0.93
Cc1c(N(C(=O)CNC(=O)c2ccccc2)C2(C(=O)NC3CCCC3)CCCCC2)c(=O)n(-c2ccccc2)n1C	.	.	.	-5.5	101.9	i	0.94
Clc1ccc(OCCCN2CCCC2)cc1Cl	0.8	8.8	108.0	-5.8	106.8	i	0.86
COc1cccc(C(=O)N2CCOCC2)c1OC	.	.	.	-4.2	107.1	i	1.03
CCNc1ccc(P(=O)(c2ccccc2)c2ccccc2)cc1	.	.	.	-3.9	100.5	i	0.96
Cc1cc(C)c(NC(=S)N(C)C)c(C)c1	.	.	.	.	100.1	i	1.01
C=CCN1CC(O)=C(c2nc3ccccc3[nH]2)C1=N	.	33.3	85.2	3.4	101.1	i	0.98
Cc1ccc(S(=O)(=O)N2c3ccc(S(N)(=O)=O)cc3CC2C)cc1 (stereo unspecified)	-2.3	44.4	106.6	2.1	101.0	i	0.96
COc1ccc(-c2ccc(=O)n(CC(=O)N3CCN(c4ccccc4OC)CC3)n2)cc1	0.0	.	.	-8.7	.	.	.
Cc1ccc(SCc2nc(-c3ccncc3)no2)cc1	-1.3	36.0	146.5	0.3	101.9	i	0.99
CC(=O)N1CCN(C(=O)CCc2nc3ccccc3c(=O)[nH]2)CC1	-0.1	-2.7	66.2	0.5	102.5	i	1.02
COc1ccc(CCNC(=O)COC(=O)/C=C/c2ccc(OCC#N)c(OC)c2)cc1	-2.2	-26.7	136.6	4.3	102.5	i	0.98
N/C(COc1cccc(Cl)c1)=N\NS(=O)(=O)c1ccccc1	-1.6	-33.3	138.7	-13.6	97.8	i	0.97
COc1ccc(CN(Cc2ccccn2)C(=O)CN2C(=O)COc3ccccc32)cc1	-1.3	.	.	6.1	102.1	i	1.08
CC(C)(C)NC(=O)C(c1cccnc1)N(C(=O)c1ccc(Cl)nc1)C1CCCC1 (stereo unspecified)	.	-66.7	83.9	0.1	101.6	i	1.04
CCOc1cc(C2C3=C(CC(C)(C)CC3=O)OC3=C2C(=O)CC(C)(C)C3)cc([N+](=O)[O-])c1O	.	.	.	-7.6	94.2	i	0.89
Cc1cc(C)n2nc(-c3ccco3)nc2n1	.	15.0	117.3	6.8	98.1	i	0.97
CC(=O)Nc1cccc(C(=O)/C=C/c2ccc(Br)cc2)c1	0.8	40.5	169.3	-7.3	83.4	i	0.51
Cc1ccc(NS(=O)(=O)c2cc(C(=O)N3CCOCC3)ccc2C)cc1C	-2.1	-13.5	206.6	4.1	101.8	i	0.85
Cc1cc(NC(=O)CSc2ccc3nnc(-c4cccs4)n3n2)no1	-3.3	.	.	0.7	108.3	i	0.86
CCOC(=O)C1=C(C)C(c2ccccc2OC)NC(=O)N1 (stereo unspecified)	0.2	.	.	-2.4	101.8	i	1
Cc1ccc(NC(=O)CCCCCNS(=O)(=O)c2ccc(C)cc2)cc1	-0.6	-25.0	115.7	-5.7	106.1	i	0.81

Ordered by the number under RGS16-Gao HTS (descending): some entries from above
Structure	GALR2 agonist	PKD1 inh	RGS16-Gao HTS	HSV augment	HSV augment primary fold
Cc1cc(NC(=O)CSc2ccc3nnc(-c4cccs4)n3n2)no1	-3.3	0.7	108.3	i	0.86
Cc1ccc(NC(=O)CCCCCNS(=O)(=O)c2ccc(C)cc2)cc1	-0.6	-5.7	106.1	i	0.81
CC(=O)Nc1cccc(C(=O)/C=C/c2ccc(Br)cc2)c1	0.8	-7.3	83.4	i	0.51

Next part.
SMILES	GALR2 agonist	INS promoter inh	INS promoter inh cell count	PKD1 inh	RGS16-Gao HTS	HSV augment	HSV augment primary fold
COc1ccc(NC(=O)CSCCc2ccccn2)cc1OC	.	.	.	3.4	94.2	i	0.96
CC(=O)c1cccc(Nc2cc(C)nc3ccc(C)cc23)c1	.	.	.	.	100.9	i	0.96
Cc1ccc(C)c(S(=O)(=O)C(C#N)c2nc3ccccc3nc2N2CCOCC2)c1 (stereo unspecified)	0.1	-5.6	80.7	0.1	81.5	i	1.05
O=C(Nc1ccc(/C=C/c2nc3ccccc3o2)cc1)c1c(F)cccc1F	2.5	9.1	173.3	6.2	58.5	i	0.95
O=C(O)CC/C(=C\c1cc([N+](=O)[O-])ccc1Cl)c1nc2ccccc2s1	-1.0	50.8	73.0	-4.4	128.7	i	0.9
Cc1ccccc1-c1noc(-c2ccccc2C(=O)O)n1	.	.	.	.	98.2	i	1.03
S=c1[nH]c2cc3c(cc2[nH]1)OCCO3	.	.	.	.	88.2	i	0.78
CC1(C)C(=O)OC(c2cc(Br)ccc2O)C(C)(C)C1=O (stereo unspecified)	-0.7	.	.	-1.4	101.5	i	1.05
CC(=NCCCn1ccnc1)C1=C(O)c2ccccc2C1=O	-2.1	-16.1	107.6	-5.8	98.2	i	0.9
O=C(NNc1nc(-c2ccc(F)cc2)cs1)c1ccccc1	.	.	.	-5.8	105.5	i	0.97
CCn1c(=O)c2cc(C(=O)N3CCOCC3)sc2c2ccccc21	-3.3	.	.	8.8	102.6	i	0.93
COc1ccccc1C(c1nnnn1C1CCCC1)N1CCN2CCCC2C1 (stereo unspecified)	-2.1	.	.	1.7	122.1	.	.
O=C(CSc1nnc(SCc2ccc(Cl)cc2)s1)c1ccc2c(c1)OCO2	-1.8	31.0	110.1	-2.8	96.0	i	0.89
Cc1cc(-c2ccc3ccccc3c2)n2ncnc2n1	.	-12.5	71.5	1.4	98.1	i	0.87
CC(C)(C)NC(=O)NC(=O)CN1CCCc2ccccc21	.	.	.	2.1	107.6	i	1.2
Cc1cc(C(=O)NN=C(Cc2ccccc2)Cc2ccccc2)c(C)o1	-0.3	-33.3	62.2	2.3	103.3	i	0.87
O=C(Nc1ccc(O)c2c(=O)cc(-c3cccc(Cl)c3)oc12)c1ccc(F)cc1	.	.	.	.	108.3	i	0.83
COc1ccc(C(=O)NCC2(c3ccccc3)CCOCC2)cc1[N+](=O)[O-]	1.1	-12.5	130.2	-4.4	113.1	i	0.93
O=C(NC(=S)NCCC1=CCCCC1)c1cncc(Br)c1	1.1	-48.5	95.6	-3.1	110.8	i	0.97
Cc1ccc(-n2nnnc2SCC(=O)Nc2ccccc2N2CCCCC2)cc1C	-0.5	.	.	-7.1	100.4	i	1.05
CC1=CC2=NC(=O)CC(C)(C(=O)N(CC(=O)NC(C)(C)C)Cc3ccccc3)N2C=C1 (stereo unspecified)	.	.	.	0.0	93.1	i	0.96
Cc1c(C(=O)NN)[nH]c2ccc([N+](=O)[O-])cc12	.	.	.	.	104.7	i	0.92
CCOCCn1c(SCCc2ccccc2)nc2c1c(=O)[nH]c(=O)n2C	-0.8	60.0	34.1	0.4	98.0	i	0.8
CCC(C)N=C1SCC(C)(/C=N/O)S1 (stereo unspecified)	-0.9	-58.3	198.2	-11.8	109.2	i	0.92
Cc1cccc(SCc2noc(C(=O)NCC3CCCO3)c2C(=O)O)c1 (stereo unspecified)	-2.9	8.1	146.3	-4.5	96.5	i	0.81
c1cncc(-c2nn3cnnc3s2)c1	-2.1	.	.	-7.1	101.6	i	1.01
Cc1ccc(C(=O)N2CC(C)OC(C)C2)cc1[N+](=O)[O-] (stereo unspecified)	.	36.6	50.6	-4.3	108.3	i	1.02
Cc1ccc(C(=O)Nc2ccc(C(=O)O)cc2)cc1S(=O)(=O)Nc1cccc([N+](=O)[O-])c1	.	53.3	134.8	-8.4	99.7	i	0.94
C=CCC1Cc2c(cccc2[N+](=O)[O-])C(CC=C)N1 (stereo unspecified)	.	.	.	9.1	90.3	i	1.02
COC(C(=O)N/N=C(\C)CC(=O)Nc1ccc(N(C)C)cc1)c1ccccc1 (stereo unspecified)	.	.	.	-2.3	96.3	i	0.93

Nothing new here: an excerpt of the list.
SMILES	GALR2 agonist	INS promoter inh	INS promoter inh cell count	PKD1 inh	RGS16-Gao HTS	HSV augment	HSV augment primary fold
CC1=CC2=NC(=O)CC(C)(C(=O)N(CC(=O)NC(C)(C)C)Cc3ccccc3)N2C=C1 (stereo unspecified)	.	.	.	0.0	93.1	i	0.96
Cc1c(C(=O)NN)[nH]c2ccc([N+](=O)[O-])cc12	.	.	.	.	104.7	i	0.92
CCOCCn1c(SCCc2ccccc2)nc2c1c(=O)[nH]c(=O)n2C	-0.8	60.0	34.1	0.4	98.0	i	0.8
CCC(C)N=C1SCC(C)(/C=N/O)S1 (stereo unspecified)	-0.9	-58.3	198.2	-11.8	109.2	i	0.92

Further entries follow.
SMILES	GALR2 agonist	INS promoter inh	INS promoter inh cell count	PKD1 inh	RGS16-Gao HTS	HSV augment	HSV augment primary fold
O=C1OC(c2ccccc2)/C(=C(/O)c2ccccc2)C1=O (stereo unspecified)	0.1	-3.6	109.7	0.0	95.3	i	0.87
O=C(CSc1nc2ccc([N+](=O)[O-])cc2[nH]1)NC1CCCC1	-0.3	-9.4	69.6	-10.7	47.2	i	1.03
O=C(N/N=C/C1CC=CCC1)c1cc(Br)ccc1O (stereo unspecified)	-1.4	.	.	-12.0	102.8	i	1.08
CCc1ccccc1NC(=S)N=Nc1c(O)n(C)c2ccc(S(=O)(=O)N3CCOCC3)cc12	-2.5	-192.9	21.9	-2.1	106.3	i	0.91
CCC(=O)N1CCN=C1SCc1ccc(Cl)cc1	-2.5	-493.1	66.0	-1.1	104.4	i	1.02
CC(NC(=O)c1cc(-c2ccc3c(c2)OCO3)nc2ccccc12)C(C)(C)C (stereo unspecified)	-0.3	.	.	1.5	52.1	i	0.93
CN(C(=O)c1cc2c(s1)-c1ccccc1S(=O)(=O)C2)c1ccccc1F	.	.	.	.	105.0	i	1.09
Cc1ccc2c(c1)N(CCC(=O)NCc1cccnc1)C(=O)CO2	-2.6	-3.9	92.3	-6.3	100.0	i	0.92
O=C(NC1CCS(=O)(=O)C1)C12CC3CC(CC(C3)C1)C2 (stereo unspecified)	-1.0	.	.	0.2	94.8	i	0.75
O=C(CSc1nc(-c2ccc(F)cc2)cs1)Nc1ccccn1	-0.1	13.8	160.3	5.3	96.9	i	0.92
CN(C)S(=O)(=O)N1CCCC(C(=O)c2ccc(C(F)(F)F)cc2)C1 (stereo unspecified)	.	.	.	-0.8	111.8	i	1.08
O=C(CC1(O)C(=O)Nc2ccc(Br)cc21)c1ccc2c(c1)OCO2 (stereo unspecified)	-1.3	30.3	82.2	-7.4	101.0	i	0.65
Cc1cccc(/C=N\Nc2cn[nH]c(=O)c2Cl)c1	-0.1	20.4	219.9	0.7	100.2	i	0.54
Cc1cccc(NC(=O)N2CCN(Cc3ccccc3)CC2)c1	-0.3	30.2	154.9	-9.1	98.8	i	0.96
